From PubChem BioAssay
Mtb H37Rv = Mycobacterium tuberculosis H37Rv growth inhibition, putative kinase inhibitor library, confirmatory dose response (AID 2842); 24,000 tested, 5.2% active; inhibition, % at 10 µg/mL; hits with a dose series show IC90 in µg/mL; M. tuberculosis H37Rv growth inhibition; higher % means a stronger effect; some inactives read as strong as hits;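 active = confirmed in a dose series; inconclusive = mostly over 85% at the one dose but not retested; inactive = below 85% or not confirmed; about a fifth of its hits are not listed in these tables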;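 note: bacteria incubated one week before Alamar blue readout; 0% = bacteria only wells and 100% = bacteria with high antibiotic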
Active calls of the source: *; ? = inconclusive.

Structure,Mtb H37Rv
O=C(CSc1nc2c(c(=O)n1-c1ccccc1)SCC2)NC1CCCCC1,9%
COc1ccc(OC)c2sc(N(CCCn3ccnc3)C(=O)c3ccc(F)cc3)nc12,13µg/mL*
COc1ccc(C(=O)Nc2nnc(-c3ccncc3)o2)cc1,-5%
CCC(=O)NCCc1nc2ccccc2n1Cc1ccccc1,15%
CCOC(=O)c1nn(-c2ccc(Cl)cc2)c(=O)c2c(NC(=O)Cc3ccc(OC)cc3)scc12,1%
CCc1ccc(-c2nnc3c4cc5c(cc4n(Cc4cccc(OC)c4)cc2-3)OCO5)cc1,-3%
Cc1ccc(-c2csc(NC(=O)c3coc4ccccc4c3=O)n2)o1,-7%
COc1ccc(C(=O)Nc2c(N)nc(SCC(=O)Nc3nccs3)[nH]c2=O)cc1OC,-10%
O=C(CCn1c2ccccc2c2ccccc21)N/N=C/c1c(F)cccc1Cl,23%
Cc1cccc(Oc2ncnc(N)c2[N+](=O)[O-])c1C,4%
COCCn1c(C)c(C)n2c3c(=O)n(CC(=O)c4ccccc4)c(=O)n(C)c3nc12,-2%
CCS(=O)(=O)c1ccc(C(=O)Nc2nc3c(C)ccc(Cl)c3s2)cc1,1%
O=C(COc1ccc(F)cc1)Nc1nccs1,32%
O=C(CCOc1ccccc1)Nc1nnc(-c2cccs2)o1,-1%
N#Cc1ccc(-c2csc(NC(=O)CCSc3ccccc3)n2)cc1,-2%
OCCN1CCN(C(c2cccc(F)c2)c2sc3ncnn3c2O)CC1 (stereo not given),-9%
Cc1c(Cl)cccc1NC(=O)CN1N=NC2C(=O)N(c3ccc(F)c(F)c3)C(=O)C21 (stereo not given),-7%
COc1cc(/C=C\C(=O)NCCc2cc3c(OC)ccc(OC)c3[nH]c2=O)cc(OC)c1OC,2%
COc1ccc(-c2csc(/C(C#N)=C/Nc3cccc(C(C)=O)c3)n2)cc1,5%
COc1ccccc1C(=O)Nc1nnc(-c2ccccc2Cl)s1,5%
COc1ccc(NC(=O)c2sc3nc(C)cc(C)c3c2N)c(OC)c1,-15%
CC(=O)c1c(C)oc2c1cc(NS(=O)(=O)c1cc([N+](=O)[O-])ccc1C)c1ccccc12,-7%
CCCN1C(=O)/C(=C2\SC(=S)NC2=O)c2cc(Br)ccc21,?
N#CC1=C(N)Oc2c(oc(CO)cc2=O)C1c1cccc(Br)c1 (stereo not given),-8%
COc1ccccc1Cn1cc2c(-c3ccc(C)c(C)c3)nnc-2c2cc3c(cc21)OCCO3,26%

Gathered by group: those above with a cyano group (3)
Structure,Mtb H37Rv
N#Cc1ccc(-c2csc(NC(=O)CCSc3ccccc3)n2)cc1,-2%
COc1ccc(-c2csc(/C(C#N)=C/Nc3cccc(C(C)=O)c3)n2)cc1,5%
N#CC1=C(N)Oc2c(oc(CO)cc2=O)C1c1cccc(Br)c1 (stereo not given),-8%

Given as labelled records: entries from further up
O=C(CSc1nc2c(c(=O)n1-c1ccccc1)SCC2)NC1CCCCC1
- Mtb H37Rv: 9%
COc1ccc(OC)c2sc(N(CCCn3ccnc3)C(=O)c3ccc(F)cc3)nc12
- Mtb H37Rv: 13µg/mL*
COc1ccc(C(=O)Nc2nnc(-c3ccncc3)o2)cc1
- Mtb H37Rv: -5%
CCC(=O)NCCc1nc2ccccc2n1Cc1ccccc1
- Mtb H37Rv: 15%

Carrying on.
Structure,Mtb H37Rv
COc1ccccc1CNC(=O)c1cnc2sccn2c1=O,-9%
O=C(CSc1nncc(=O)[nH]1)Nc1ccc(F)cc1,67%
COc1cc(/C=C/C(=O)Nc2nnc(-c3cccc(C)c3)s2)cc(OC)c1OC,40%
COc1ccc(N2CC(NC(=O)Nc3ccc(F)c(Cl)c3)CC2=O)cc1OC (stereo not given),4%
Cc1cc(C)c2nc(NC(=O)c3ccc(C#N)cc3)sc2c1,13%
O=C1NCCc2c(OCc3ccccc3)cccc21,9%
CCOCCSc1nc2c(c(=O)n(C)c(=O)n2C)n1Cc1ccccc1Cl,27%
CNC(=O)CSc1nnc2[nH]c(=O)cc(C)n12,-3%
COc1ccc(NC(=O)Cn2ccn(-c3cccc4ccccc34)c(=O)c2=O)cc1,-1%
CCOC(=O)c1nn(-c2ccc(C)cc2)c(=O)c2c(NC(=O)c3cc(OC)c(OC)c(OC)c3)scc12,-5%
CCCC(=O)Nc1c(C(=O)Nc2ccccc2F)oc2ccccc12,-3%
COc1ccc(NC(=O)c2oc3ccccc3c2NC(=O)/C=C\c2ccc3c(c2)OCO3)c(OC)c1,7%
CCN(CC)S(=O)(=O)c1ccc(C(=O)NCCc2cc3cc(C)c(C)cc3[nH]c2=O)cc1,-14%
CCc1ccccc1N1C(=O)N(c2ccc(C)cc2)C2CS(=O)(=O)CC21 (stereo not given),-10%
CC(=O)NC(=O)c1cc2c(ccc3ccccc32)oc1=Nc1ccc(F)cc1F,7%
O=C(CN1C(=O)CCC1=O)Nc1nc2c(cc3c4c(cccc42)CC3)s1,-6%
COCCn1c(=NC(=O)c2cc(=O)c3ccccc3o2)sc2ccccc21,-16%
O=C(Nc1cccc2ccccc12)NC1CC(=O)N(c2ccc3c(c2)OCCO3)C1 (stereo not given),3%
COc1ccc(OC)c(/C=N/NC(=O)CNC(=O)c2c(F)cccc2Cl)c1,-4%
COc1cc2c3nnc(-c4ccc(F)cc4)c-3cn(Cc3cccc(C)c3)c2cc1OC,10%
N#CC1=C(SCC(=O)N(c2ccccc2)c2ccccc2)NC(=O)CC1c1ccco1 (stereo not given),-9%
CS(=O)(=O)c1ccc2nc(NC(=O)CN3C(=O)c4ccccc4C3=O)sc2c1,-21%
CCCC(=O)Nc1nnc(-c2ccc(C)cc2)s1,4%
Nc1ncnc(Nc2ccccn2)c1[N+](=O)[O-],5%
Nc1nc(SCC(=O)Nc2ccc(Cl)cc2)[nH]c(=O)c1NC(=O)c1ccc(F)cc1,-10%

Continued.
Structure,Mtb H37Rv
CCOCC(=O)Nc1scc2c(C(=O)OCC)nn(-c3ccc(Cl)cc3)c(=O)c12,3%
CCc1ccccc1-n1c(-c2ccccc2)cn2c3c(=O)[nH]c(=O)n(C)c3nc12,13%
Cc1c(C)n2c(SCC(=O)Nc3ccccc3F)nnc2[nH]c1=O,-4%
Cc1ccc(NC(=O)CSc2ccnc3c2c(=O)n(C)c(=O)n3C)cc1Cl,4%
CCOC(=O)Cn1c(=O)c2c(nc3n(-c4ccc(C)cc4C)c(C)cn23)n(C)c1=O,2%
Cc1cc(OC(=O)c2cccc(F)c2)c([N+](=O)[O-])c(=O)[nH]1,2%
Cc1ccc(S(=O)(=O)CCCC(=O)Nc2nc3c(Cl)c(Cl)ccc3s2)cc1,3.4µg/mL*
CCC(=O)Oc1cccc2cc(C(=O)O)c(=O)oc12,-7%
CC(C)CNC(=O)c1cc2ccc(O)cc2oc1=O,-9%
COc1cccc(C2CC(c3cccs3)=NN2C(=O)CSc2nc3c(cnn3-c3ccc(S(N)(=O)=O)cc3)c(=O)[nH]2)c1OC (stereo not given),51%
CCOC(=O)c1oc2ccccc2c1NC(=O)COc1ccc(OC)cc1,-3%
O=C(CSc1ncnc2sc3c(c12)CCCC3)Nc1ccc(Cl)cc1,10%
Cc1ccc(Nc2nc(-c3ccccc3)c3cc(Br)ccc3n2)cc1,9%
O=C(COc1ccc(F)cc1)Nc1c(C(=O)Nc2ccc([N+](=O)[O-])cc2)oc2ccccc12,2%
COC(=O)c1c(NC(=O)C2CC(=O)NN2Cc2ccccc2)sc2c1CCC2 (stereo not given),17%
CCOc1ccc(-n2c(=O)[nH]c3c(C(N)=O)nc(-c4ccc(Cl)c(Cl)c4)nc32)cc1,-8%
CC(C)(C)c1ccc(-n2c(=O)[nH]c3c(C(N)=O)nc(CCc4ccccc4)nc32)cc1,2.4µg/mL*
Oc1ccc(NC(=S)Nc2ccccc2)cc1,-4%
COc1ccc(-c2nnc3c4cc5c(cc4n(Cc4ccc(F)cc4)cc2-3)OCO5)cc1,?
Cc1csc(NC(=O)CSc2nnc(CNC(=O)c3cccc(C(F)(F)F)c3)o2)n1,-15%
O=C(CSc1ncnc2scc(-c3ccc(Br)cc3)c12)Nc1ccccc1,-10%
CC(C)c1nnc(NC(=O)COc2ccc(Cl)cc2Cl)s1,0%
COc1ccc(C2=NN(S(C)(=O)=O)C(c3cn(-c4ccccc4)nc3-c3ccc(C)cc3)C2)cc1 (stereo not given),-9%
Nc1ncnc(Nc2c(F)cccc2F)c1[N+](=O)[O-],1%
COCCCn1c(C)cn2c3c(=O)n(CC(=O)c4ccccc4)c(=O)n(C)c3nc12,-10%

The results go on.
Structure,Mtb H37Rv
COc1ccc(C(=O)Nc2ncc(Cc3cc(Cl)ccc3Cl)s2)cc1OC,8%
Cc1cc(S(=O)(=O)N2CCCCC2CCNC(=O)C(=O)NC(C)C)ccc1F (stereo not given),-13%
COc1cc(-c2nnc(NC(=O)c3ccc(C(C)=O)cc3)o2)cc(OC)c1OC,57%
O=C(Nc1ncc(Cc2ccccc2Cl)s1)c1cccs1,18µg/mL*
CCOC(=O)N1CCN(C(=O)CSCC(=O)Nc2nc(-c3ccc4c(c3)OCO4)cs2)CC1,59%
CSc1cccc(-n2cc(-c3ccc(Br)cc3)[nH]c2=O)c1,71%
Cc1ccc(NC(=O)CSc2nnc(Cc3cc(=O)[nH]c(=O)[nH]3)n2-c2ccc(Cl)cc2)cc1,4%
Nc1nc(SCC(=O)NCCc2ccccc2)[nH]c(=O)c1NC(=O)c1cccs1,-9%
O=C(CC1SC(N=Nc2c(O)[nH]c3ccccc23)=NC1=O)Nc1ccc(Cl)cc1 (stereo not given),82%
Cc1ccc(-n2nnc3c(=O)n(CC(=O)c4ccc(Cl)cc4)cnc32)cc1C,-9%
Cc1sc2nc(SCC(=O)NCCO)[nH]c(=O)c2c1C,3%
NC(=O)c1c(NC(=O)C2=COCCO2)sc2c1CCN(Cc1ccccc1)C2,7%
Cc1ccc2[nH]c(=O)c(CC(=O)O)c(-c3ccccc3)c2c1,-2%
COC(=O)c1ccc(NC(=O)C(C)N2C(=O)c3ccccc3S2(=O)=O)cc1 (stereo not given),-4%
COc1cc(OC)cc(C(=O)Nc2ccc3c(c2)C(=O)NC3=O)c1,-1%
O=C(CSc1nnc(Cn2c(=O)sc3ccccc32)n1-c1ccccc1)N1CCOCC1,2%
COc1ccc(-c2csc(NC(=O)c3cc(-c4ccccc4)nc4ccccc34)n2)c(OC)c1,-8%
O=C(CSc1nc2c([nH]c3ccccc32)c(=O)n1-c1ccc(OC(F)(F)F)cc1)N1CCOCC1,-2%
Cc1ccc(-c2nnc3ccc(SCC(=O)Nc4ccc(F)cc4F)nn23)cc1,2%
Cc1c(Cc2ccc3c(c2)OCO3)sc(NC(=O)CCOc2ccccc2)c1C(N)=O,1%
O=C1CCc2cc(S(=O)(=O)Nc3ccc(F)c(C(F)(F)F)c3)cc3c2N1CCC3,2%
O=C(Nc1ccc2c(c1)OCO2)c1oc2ccccc2c1NC(=O)C1CC1,0%
CCCCCn1c(SC(C)C(=O)OC)nc2c1c(=O)[nH]c(=O)n2C (stereo not given),-5%
Cc1ccnc(SCCn2c(N3CC(C)CC(C)C3)nc3c2c(=O)n(C)c(=O)n3C)n1 (stereo not given),13%
Cn1c(SCC(=O)c2ccccc2)ncc(C(=O)Nc2ccccc2)c1=O,3%

Further compounds follow:
Structure,Mtb H37Rv
COc1cccc(C(=O)Nc2nnc(-c3ccco3)o2)c1,81%
COc1ccc(Nc2c3c4c(cccc4[nH]c2=O)C(=O)c2ccccc2-3)cc1,12µg/mL*
CCC(Sc1ccc(Cl)cc1)C(=O)Nc1nnc(-c2ccccc2)s1 (stereo not given),-2%
COc1ccc(-c2cccc(NC(=O)c3cccc([N+](=O)[O-])c3)c2)nn1,0%
COc1ccc(C(=O)Nc2c(N)nc(SCC(=O)Nc3ccc(F)cc3F)[nH]c2=O)cc1OC,-8%
O=C(/C=C/c1ccccc1)Nc1c(C(=O)Nc2ccc(F)c(F)c2)oc2ccccc12,3%
Cc1cccc(CSc2nnc(C)c(=O)n2N)c1,8%
CCCNC(=O)CSc1nnc2[nH]c(=O)cc(C)n12,-3%
Cc1ccc(C2C3=C(CCCC3=O)Nc3c2c(=O)n(C)c(=O)n3C)o1 (stereo not given),1%
COc1cccc2sc(Nc3nc4ccc(Cl)cc4s3)nc12,14µg/mL*
CC(Oc1ccccc1)C(=O)Nc1c(C(=O)Nc2ccc3c(c2)OCO3)oc2ccccc12 (stereo not given),-2%
COC(=O)CSCC(=O)Nc1nnc(-c2cccc(C)c2)s1,24µg/mL*
COc1ccc(OC)c2[nH]c(=O)c(CCNC(=O)CCc3ccccc3)cc12,4%
O=C1CCc2cc(S(=O)(=O)NCCC(c3ccccc3)c3ccccc3)cc3c2N1CC3,5%
Cn1c(=O)[nH]c(=O)c2c1nc1n2CC(c2ccc(Br)cc2)O1 (stereo not given),-2%
CS(=O)(=O)Nc1cccc(C2=NN(c3nc(-c4ccccc4)c4cc(Cl)ccc4n3)C(c3ccco3)C2)c1 (stereo not given),1.4µg/mL*
COc1ccc(Nc2nc3ccc(OC)cc3s2)cc1,22%
Cc1c(Cl)cccc1NC(=O)CSc1nnc(-c2ccncc2)o1,1%
O=C(c1ccccc1)c1c(Nc2ccc(F)cc2)[nH]c(=O)c2ccccc12,9%
Cc1cccc(NC(=O)CSc2ncnc3c2nnn3Cc2ccccc2F)c1,4%
CCOC(=O)c1c(C)oc2c1c(C=Nc1cc(C)ccn1)c(O)c1ccccc12,2%

Only part of the results is shown, so the mix of outcomes need not match the whole.
